Source: PubChem BioAssay (National Center for Advancing Translational Sciences (NCATS))
Marburg entry inh – Marburg virus entry inhibition | Marburg virus pseudotyped entry inhibition, cell reporter; control for the full effect not named in the record; about a third of the inactives were read at about 46 µM | Potency, µM (series often up to 37.8 µM), inactives show at the highest dose activity change, negative = inhibition, usual class: inhibitors | 300,000 compounds, 1.8% hits; active = well fitted inhibition curve with a large enough effect; inconclusive = small, poorly fitted or top-dose-only effect, or effect the other way; inactive = flat fitted curve, though single readings scatter; tested in HEK293 cells; about a fifth of its hits are not listed in these tables; also: % is scaled to controls: 0 for no effect and ±100 for the full control effect; luciferase read-out
Cruzain noTriton – blocks cruzain activity in detergent-free assay; P25779; purified cruzain, Z-FR-AMC fluorescence, no detergent; Potency, µM, for inactives: max response, negative = inhibition, usual class: inhibitors; 200,000 compounds, 2.3% hits;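 also: plate controls were enzyme without inhibitor for no effect and buffer without enzyme for full effect; nearly all actives have a fitted effect of over 40% in size; top concentration of the series not given in the record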
Target sequence (P25779 123-467 limits assumed): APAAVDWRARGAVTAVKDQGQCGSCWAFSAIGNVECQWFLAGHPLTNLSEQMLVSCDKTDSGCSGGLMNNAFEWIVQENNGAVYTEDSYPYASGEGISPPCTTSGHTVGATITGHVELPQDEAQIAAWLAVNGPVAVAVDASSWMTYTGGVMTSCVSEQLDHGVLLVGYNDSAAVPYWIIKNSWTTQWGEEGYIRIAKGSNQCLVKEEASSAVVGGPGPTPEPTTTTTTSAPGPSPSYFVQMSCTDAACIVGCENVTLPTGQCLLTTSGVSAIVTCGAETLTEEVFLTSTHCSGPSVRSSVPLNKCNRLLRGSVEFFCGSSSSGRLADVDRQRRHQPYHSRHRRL
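Purified cruzain at 1.5 nM, pre-incubated 15 min with compound at room temperature in 100 mM sodium acetate pH 5.5, 5 mM DTT, 0.00005% Triton X-100. Reaction started with 2 uM Z-FR-AMC; AMC fluorescence increase over 60 s gives rate.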
Cruzain inh Det – inhibitors of Trypanosoma cruzi cruzain with detergent | P25779 | purified cruzain, Z-FR-AMC fluorescence, 0.01% Triton | Potency, µM, inactives show max response, negative = inhibition, hits mostly inhibitors | 200,000 compounds, 0.43% hits | AID 1478;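 also: plate controls were neutral wells for no effect and buffer without enzyme for full effect; nearly all actives have a fitted effect of over 40% in size; top concentration of the series not given in the record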
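Enzyme 1.5 nM, Z-FR-AMC 2 uM, NaOAc 100 mM pH 5.5, DTT 5 mM, Triton X-100 0.01%; 15 min RT compound preincubation; kinetic ex360/em450, 60 s delta.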
NS1 inh – blocks influenza NS1 protein function. S. cerevisiae slowed by influenza A NS1, growth recovery by OD600. Potency, µM (highest dose often 46.1 µM), without a hit: at the highest dose activity, positive = more growth. 270,000 compounds, 0.4% hits; active means well fitted rising curve with a large enough effect; inconclusive means small, poorly fitted or top-dose-only effect; inactive means no such curve, though single readings can be large or run the other way; also: nearly all actives have a fitted effect of over 50% in size
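OD600 was taken as the measure of yeast growth restored by compound in an NS1-expressing S. cerevisiae strain. Cells had been washed out of glucose medium and diluted 1:100 into galactose -URA medium, pH 6.0.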
RE007 growth inh – less growth of the S. pombe RE007 Vpr strain; S. pombe RE007 Vpr strain, BacTiter-Glo ATP luminescence, 24 h; control for the full effect not named in the record; Potency, µM (titrated, usually from 92.2 µM), inactives show at the highest dose activity change, negative = less growth; 360,000 compounds, 0.21% hits; active = well fitted falling curve with a large enough effect; inconclusive = small, poorly fitted or top-dose-only effect; inactive = no such curve, though single readings can be large or run the other way;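 also: % is scaled to controls: 0 for no effect and ±100 for the full control effect; nearly all actives have a fitted effect of over 50% in size; the assay follows cell death caused by Vpr and the record does not say whether a fall means rescue or toxicity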
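Fission yeast strain RE007, carrying one chromosomally integrated HIV-1 vpr copy, was seeded at OD 0.01 in PMG+AL medium with 23 nL pinned compound. After 24 h at 30 °C and 99% humidity, viability was read by BacTiter-Glo luminescence.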
SARS PLpro yeast – blocks SARS-CoV papain-like protease in a yeast assay. 330,000 compounds, 0.19% hits. S. cerevisiae expressing SARS-CoV PLpro, growth rescue; control for the full effect not named in the record. AID 485353. Potency, µM (top dose mostly 32.9 µM), inactives show at the top dose activity, positive = growth rescue; active means well fitted rising curve with a large enough effect; inconclusive means small, poorly fitted or top-dose-only effect; inactive means no such curve, though single readings can be large or run the other way; also: 0% is about no effect; nearly all actives have a fitted effect of over 55% in size; growth read by luminescence after 48 h
Lassa entry inh – Lassa virus entry inhibition. 300,000 compounds, 1.2% hits. Lassa virus pseudotype entry inhibition, cell reporter; control for the full effect not named in the record. AID 540256. Potency, µM (series often up to 37.9 µM), without a hit: at the top dose activity change, negative = inhibition, most hits filed as inhibitors; active means well fitted inhibition curve with a large enough effect; inconclusive means small, poorly fitted or top-dose-only effect, or effect the other way; inactive means flat fitted curve, though single readings scatter; tested in HEK293 cells; also: % is scaled to controls: 0 for no effect and ±100 for the full control effect; nearly all actives have a fitted effect of over 50% in size; luciferase read-out
2A StopGo – lowers the luciferase signal of an FMDV 2A StopGo reporter. human cells with a luciferase reporter of 2A StopGo recoding; control for the full effect not named in the record. Potency, µM (highest dose often 57.9 µM), for the others: top-dose signal change, negative = less light. 410,000 compounds, 1.2% hits. AID 1159524; active = well fitted falling curve with a large enough effect; inconclusive = small, poorly fitted or top-dose-only effect; inactive = no such curve, though single readings can be large or run the other way; tested in HEK293T cells; also: % is scaled to controls: 0 for no effect and ±100 for the full control effect; nearly all actives have a fitted effect of over 45% in size; luciferase light after 4 h
* = called active by the depositor; ? = inconclusive; · = not tested or not shown; & = joins results of further samples; [ ] = dose if it differs, or a comment. Unless noted, calls follow the shape of the dose curve; as a rule, active = well fitted curve in the direction sought with a large enough effect; inconclusive = small, poorly fitted or top-dose-only effect, or another doubt; inactive = no such curve, though single readings can be large; an effect the other way counts as inactive or inconclusive. Potency is read from the fitted curve at half-maximal effect. This is a random part of the collection. Share with any hit: about 4.6%.

SMILES | Marburg entry inh | Cruzain noTriton | Cruzain inh Det | NS1 inh | RE007 growth inh | SARS PLpro yeast | Lassa entry inh | 2A StopGo
CC(=O)c1nnn(-c2nc(N)nc(N(c3ccccc3)c3ccccc3)n2)c1C | -13.9% | ? | -4.5% | -65.6% | 9.5% | 7.7% | -9.2% | -12.4%
O=C(Nc1nnc(C2=COCCO2)o1)C1CCCCC1 | ? | · | · | · | -0.3% | 0.7% | 14.3% | 12.7%
Cc1c(C(=O)OC2CCC(C)CC2)[nH]c2c1C(=O)CC(c1ccccc1Cl)C2 (stereo not drawn) | -18.6%[46.1 µM] | 2.6% | -0.4% | · | · | · | 2.8%[46.1 µM] | -19.8%
COc1ccccc1C(c1c(O)cc(C)n(Cc2ccco2)c1=O)N1CCCCC1 (stereo not drawn) | · | ? | 1.4% | · | · | · | -3.2%[46.1 µM] | -15.0%
Cc1ccc(C(=O)CC(c2cccs2)S(=O)(=O)c2ccc(C)cc2)cc1 (stereo not drawn) | ? | -12.3% | -5.7% | 5.2% | -10.5% | -3.7% | 5.9% | 6.7%
O=C(NCCOC(=O)c1ccc([N+](=O)[O-])cc1)c1cccnc1 | 2.8%[46.1 µM] | · | · | · | -5.3% | 1.2% | 0.8%[46.1 µM] | -9.3%
CCOc1ccc(CN(C)CC(=O)NCc2ccccc2)cc1 | · | · | · | 2.5% | 6.5% | 2.8% | · | -3.1%
COc1cc(CN2CCCCCC2)cc(OC)c1O | · | · | · | -0.6% | -7.5% | 4.8% | · | -5.2%
Cc1nc(NC(=O)c2cccc(-c3cc4ccccc4oc3=O)c2)ccc1Br | ? | 20µM* | -10.6% | 22.4% | -3.0% | 3.1% | -0.6% | 15.7%
O=C(c1cc(Br)ccc1Cl)N1CCN(c2ccccn2)CC1 | · | · | · | -33.8% | 2.9% | -6.4% | · | -17.1%
C/C(=N\NC(=O)c1c[nH]c2ccccc12)c1ccc(C)s1 | ? | · | · | 7.4% | 2.6% | -2.1% | ? | 18.1%
COc1ccc(N2CCN(S(C)(=O)=O)CC2)cc1 | 4.0% | -6.8% | 1.9% | -6.2% | 1.0% | 21.6% | 3.6% | 10.9%
COc1ccccc1C1N(c2ccc(Cl)cc2)C(=O)C2CCCN21 (stereo not drawn) | 4.61µM* | 4.6% | 1.5% | 11.2µM* | 19.5% | 14.9% | ? | -14.8%
O=C(COC(=O)c1ccc(Cl)nc1)Nc1ccc(Cl)cc1 | 5.5%[46.1 µM] | · | · | · | -19.7% | -0.6% | 7.2% | -9.5%
CC1CCCC(NC(=S)NC(=O)c2ccccc2Br)C1C (stereo not drawn) | -7.7% | 13.0% | -4.2% | -19.0% | · | -44.6% | ? | -22.2%
CC(=O)c1cccc(OCCN2C(=O)NC(C)(C)C2=O)c1 | 7.4% | 3.6% | 2.5% | ? | -5.1% | -3.3% | 6.7% | -9.5%
CC1CCCN(S(=O)(=O)c2ccc(NC(=O)Cn3nnc(-c4ccccc4F)n3)cc2)C1 (stereo not drawn) | ? | -16.0% | 3.2% | 2.5% | -4.5% | -4.1% | -5.5% | 10.7%
N/C(=N\OC(=O)/C=C/c1ccccc1)c1ccccn1 | 7.94µM* | · | · | -10.3% | -22.7% | -2.0% | -25.6%[46.1 µM] | -34.0%
COC(=O)CCC/C=C1\SC[C@@H](NC(=O)c2ccccc2)C1NC(C)=O (stereo partly drawn) | 5.3% | -1.8% | -1.7% | 13.7% | 9.6% | 2.1% | 1.1% | -11.5%
COc1ccc(-n2c(SCC(=O)N(C)c3ccccc3)nc3c([nH]c4ccccc43)c2=O)cc1OC | · | · | · | 7.6% | -8.6% | -1.0% | · | -9.9%
O=C(O)CN1CCCCCC1=O | · | · | · | 7.8% | -9.6% | 1.1% | · | -2.0%
Cc1oc(-c2cccs2)nc1CS(=O)CC(=O)NC1CCCCCC1 (stereo not drawn) | · | -10.7% | -9.1% | ? | -5.2% | -6.7% | · | 45.9%[activator]
CCN(CC(=O)NCc1ccc(Cl)cc1)C(=O)COc1cccc(Cl)c1 | ? | · | · | · | -13.4% | -5.0% | -4.7% | -0.8%
COc1ccc(-c2cnc(C)o2)cc1S(=O)(=O)Nc1ccc(OC(F)(F)F)cc1 | · | ? | -11.8% | · | · | · | -24.2%[46.1 µM] | 24.4%
COc1ccc(N2CCN(c3ccc(NC(=O)/C=C\C(=O)O)cc3)CC2)cc1 | · | · | · | 22.7% | -9.8% | -9.7% | · | -9.9%
CCn1c(CCn2ccnc2C)n[nH]c1=S | 12.7% | -3.7% | 0.9% | -2.3% | 0.0% | 3.3% | 0.3% | 3.6%
O=[N+]([O-])c1ccc(-c2nc(Nc3ccc(O)cc3)c3ccccc3n2)cc1 | · | · | · | 2.3% | 0.1% | -0.2% | · | 0.0%
C=C(C)CSc1nc2nc(C)cc(C)n2n1 | 11.5% | 1.2% | 3.8% | -9.8% | 6.4% | -3.0% | 22.3% | ·
CCN1CCN(c2ncnc3scc(-c4ccc(OC)cc4)c23)CC1 | -18.0%[46.1 µM] | · | · | -3.2% | -11.2% | -0.3% | 29.6%[46.1 µM] | -8.4%
COc1ccc(C(CC(=O)Nc2ccc(OC)c(OC)c2)N2Cc3ccccc3C2=O)cc1 (stereo not drawn) | · | -1.7% | -0.4% | · | · | · | -16.2%[46.1 µM] | 11.6%
COc1ccc(NC(=O)C2CCC(CNS(=O)(=O)c3ccc4c(c3)C(C)(C)C(=O)N4C)CC2)cc1 (stereo not drawn) | · | 6.6% | -0.3% | · | · | · | -1.3%[46.1 µM] | -9.7%
COc1cc(/C=C2/NC(=O)NC2=O)cc(Br)c1OCc1ccccc1 | 4.7% | · | · | · | -16.7% | 0.1% | -6.0%[46.1 µM] | -17.6%
CCOC(=O)c1c(NC(C)=O)c2c3c(sc2n1Cc1c(C)cc(C)cc1C)CCCC3 | ? | ? | -6.0% | · | · | · | · | 0.5%
Cc1cc(C)nc(N(C#N)Cc2cccc(Cl)c2)n1 | · | · | · | -8.9% | 16.9% | 0.1% | · | 24.8%
CCOC(=O)c1c(C)oc2nc(C)nc(N3CCN(c4ccc(OC)cc4)CC3)c12 | · | 16.4% | -5.5% | · | · | · | -25.5%[46.1 µM] | ?
Cc1cc(=O)oc2cc(NC(=O)c3cc4ccccc4o3)ccc12 | 2.5% | 10µM* | 2.2% | 3.6% | · | 7.8% | · | ·
Cc1ncccc1C(=O)N1CCCC(CNC(=O)C2(c3ccc(Cl)cc3)CC2)C1 (stereo not drawn) | · | · | · | 0.9% | 8.1% | 1.5% | · | -5.9%
COc1ccc(Nc2c(-c3ccc(C)o3)nc3cc(C)ccn23)cc1 | 6.0%[46.1 µM] | -13.8% | -12.1% | · | · | · | 1.3%[46.1 µM] | 3.4%
CC(=O)NCC(=O)OCN1C(=O)c2ccccc2C1=O | 24.1%&24.1% | -0.2% | -1.0% | 4.4% | 2.0% | -24.7% | -16.4% | -0.1%
Cc1cccc(NC(=O)Cn2c(=O)n(Cc3ccco3)c(=N)c3c4c(sc32)COC(C)(C)C4)c1 | 13.1%&13.1% | 19.9% | -5.6% | 6.4% | 5.9% | 4.8% | -10.0% | -17.2%
CCCNc1nc(Cl)nc(NC(C)(C)C)n1 | ? | · | · | · | -3.3% | -1.5% | -6.8% | -0.1%
Cc1nn(CC(=O)Nc2ccc3c(c2)nc(CN2CCCCC2)n3C)c(=O)c2ccccc12 | ? | -8.4% | -3.2% | -2.5% | 21.4% | 5.9% | 17.7% | -12.1%
CCOc1ccc(CCNC(=O)CS(=O)Cc2nc(-c3ccc(C)cc3)oc2C)cc1OCC (stereo not drawn) | 4.2%&4.2%[46.1 µM] | 9.8% | -3.8% | 10.8% | -9.0% | 4.2% | 13.3%[46.1 µM] | -11.9%&-14.1%
CCN(CC)C(=O)CSc1nnc(CSc2ncccn2)n1C | · | · | · | 2.8% | 13.6% | 2.5% | · | -0.5%
Cc1snc(SCC(=O)c2ccc([N+](=O)[O-])cc2)c1C#N | 1.3%[46.1 µM] | · | · | · | ? | -13.0% | 13.5% | 91.1%[activator]
COc1ccccc1NC(=O)c1sc2ncn(Cc3cccc4ccccc34)c(=O)c2c1C | -13.4% | 7.94µM* | 12.8% | 6.0% | -5.9% | -20.4% | ? | -26.9%
COC(=O)C1=C(N)Oc2cc(C)n(Cc3cccnc3)c(=O)c2C1c1cc(OC)ccc1OC (stereo not drawn) | -1.4% | 5.5% | 1.3% | -0.6% | 4.8% | 2.5% | -1.2% | 12.1%
O=C(N/N=C/c1cc([N+](=O)[O-])ccc1Cl)c1cnccn1 | -0.8%[46.1 µM] | · | · | -2.7% | 0.4% | -1.3% | -19.2% | -16.2%
COc1ccc(S(=O)(=O)N(C)CC(=O)NCc2ccc3c(c2)OCO3)cc1 | 16.9%[46.1 µM] | · | · | 4.4% | 3.3% | 2.1% | 15.3%[46.1 µM] | 7.5%
CC(C)CCNC(=O)CSc1c2c(nc3ccc(Cl)cc13)CCCC2 | -9.9%[46.1 µM] | -5.2% | -3.8% | · | · | · | 15.2%[46.1 µM] | -27.7%
The results go on.
SMILES | Marburg entry inh | Cruzain noTriton | Cruzain inh Det | NS1 inh | RE007 growth inh | SARS PLpro yeast | Lassa entry inh | 2A StopGo
CCN(CC(=O)Nc1ccc(C(=O)OC)cc1)C1CCCCC1 | ? | · | · | 0.6% | 5.7% | 8.6% | -0.9%[46.1 µM] | 21.5%
COc1ccc(NC(=S)SC)cc1OC | 17.6%&17.6% | -6.9% | -0.7% | 4.8% | -7.7% | 6.1% | -1.2% | ?
COc1ccc(NC(=O)c2c(NCc3cccs3)sc3c2CCCCC3)c(OC)c1 | · | -0.2% | -14.4% | · | · | · | -2.7%[46.1 µM] | 16.0%
COC(=O)c1ccccc1NC(=S)N1CCN(c2ccccc2)CC1 | · | · | · | -1.0% | -7.4% | -1.5% | · | -3.3%
Cc1ccc(Cl)cc1NC(=O)CN1C(=O)c2cccc3cccc1c23 | 1.8%[46.1 µM] | -12.2% | -1.4% | · | · | · | -0.3%[46.1 µM] | 5.8%
